Mtb growth – Mycobacterium tuberculosis H37Rv growth inhibition, cell based, confirmatory dose response (AID 1949). M. tuberculosis H37Rv growth inhibition. most inactive calls were filed without a number and no value below 0 was filed. one-dose inhibition, % at 10 µg/mL; IC50 in µg/mL for titrated hits. 100,000 compounds, 1.6% hits;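 active = confirmed in a dose series; inconclusive = about 50% or more but not retested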;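 note: bacteria grown 7 days with compound before Alamar blue readout; 0% = untreated bacteria and 100% = reference antibiotic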
Active calls of the source: *; i = inactive; ? = inconclusive. Only part of the results is shown (hit frequency here may not be typical).

SMILES | Mtb growth
CCCCn1nnnc1NCc1cc(OC)c(OC)c(OC)c1 | i
CCCOc1ccc(C(=O)C(C)=O)cc1 | i
CCC1CCCCN1S(=O)(=O)c1ccc(NC(C)=O)cc1 (stereo unspecified) | i
COc1ccc(NC(=O)CN(c2cc(C)ccc2C)S(C)(=O)=O)cc1OC | 2%
O=C(Nc1ccc(I)cc1)c1cc2cc(Cl)ccc2oc1=O | i
NC(=O)c1cn(-c2ccccc2)nc1-c1cccc(Br)c1 | i
Cc1ccc(Cl)cc1NC(=O)C(=O)N1CCCCC1 | i
O=C(NCC(O)c1ccccc1)c1ccc(Cl)c(S(=O)(=O)N2CCCCC2)c1 (stereo unspecified) | i
CCOc1ccc(NC(=O)C2CCN(C(=O)c3cccc(Cl)c3)CC2)cc1 | i
CCOc1cc(OCC)cc(C(=O)NCc2ccco2)c1 | 2%
O=C(CSC1=NC(c2ccccc2)CC(=O)N1)NCCc1ccccc1 (stereo unspecified) | i
COC(=O)c1cccc(NC(=O)CCCOc2cc(C)ccc2C)c1 | i
COc1cc(CO)c(Br)cc1OCc1ccccc1C#N | i
Cc1cc(Oc2coc3cc(OCC(=O)Nc4ccccc4F)ccc3c2=O)cc(C)c1Cl | 2%
O=C1C2C(C(=O)N1c1nccs1)C1c3ccccc3C2C2C=CC=CC21 (stereo unspecified) | i
CC1=Nc2ccccc2N=C(N)C1c1ccccc1 (stereo unspecified) | i
CCC(=O)NC(=S)Nc1ccc(N2CCN(C(=O)c3ccccc3)CC2)c(Cl)c1 | 30%
O=C1CC(NCc2ccc(Cl)cc2)C(=O)N1c1ccc(F)cc1 (stereo unspecified) | 4%
COc1ccc(S(=O)(=O)N2CCN(c3cccc(Cl)c3)CC2)cc1[N+](=O)[O-] | i
CCOc1ccccc1NC(=S)NNC(=O)c1ccccn1 | i
Cc1ccc(Cn2cnc([N+](=O)[O-])n2)cc1 | ?
COC(=O)c1c(NC(=S)Nc2ccc(N(C)C(C)=O)cc2)sc(C)c1-c1ccccc1 | i
Cc1ccc(C(=O)NC(=S)Nc2ncc(I)cc2C)c(C)c1 | i
COc1ccccc1NC(=O)c1c(NC(=O)C(C)C)sc2c1CCCC2 | i
CN1CCN(CCCOc2ccc(C(=O)c3ccccc3)cc2)CC1 | i
CCc1cc(=O)oc2cc(Oc3ccc([N+](=O)[O-])cc3C(F)(F)F)c(Cl)cc12 | i
Cc1ccc(NS(=O)(=O)c2ccc(NC(=O)C(c3ccccc3)c3ccccc3)cc2)c(C)c1 | 7%
CC1CCc2c(sc(NC(=O)c3ccccc3F)c2C(N)=O)C1 (stereo unspecified) | 1%
COC(=O)C1=C(C)NC(=O)NC1c1ccccc1C (stereo unspecified) | 6%
Cc1ccc(C2C(C#N)=C(N)Oc3n[nH]c(-c4ccccc4)c32)o1 (stereo unspecified) | i
COC(=O)c1cc(OC)c(OC)cc1NC(=O)N1c2ccccc2Sc2ccccc21 | 1%
COC(=O)c1ccccc1NC(=O)COc1ccc(S(=O)(=O)NC2CCCCC2)cc1 | i
CC(=O)NS(=O)(=O)c1ccc(NC(=O)CSc2ccc(Cl)cc2)cc1 | i
CSc1cccc(NC(=O)CCSc2ccccc2)c1 | i
COc1ccc(CC(=O)Nc2ccc(Nc3ccccc3)cc2)cc1 | 5%
CCc1ccc(NS(=O)(=O)c2cc(OC)ccc2OC)cc1 | i
COc1ccc(N(CC(=O)Nc2ccccc2C(=O)NCc2ccco2)S(=O)(=O)c2ccc(C)cc2)cc1OC | i
CC(=O)c1ccc(NC(=O)c2cccc(NC(=O)c3ccccc3)c2)cc1 | i
CC(C)(C)CC(=O)NCCCN1CCOCC1 | i
Cc1c(NC(=S)NCc2ccco2)c(=O)n(-c2ccccc2)n1C | i

A portion from further up:
SMILES | Mtb growth
CC(=O)c1ccc(NC(=O)c2cccc(NC(=O)c3ccccc3)c2)cc1 | i
CC(C)(C)CC(=O)NCCCN1CCOCC1 | i
Cc1c(NC(=S)NCc2ccco2)c(=O)n(-c2ccccc2)n1C | i

(further entries)
SMILES | Mtb growth
Clc1ccc(OCCCOc2ccccc2Br)c2ncccc12 | 13%
CN1CCN(C(CC(=O)Nc2cccc([N+](=O)[O-])c2)C(=O)O)CC1 (stereo unspecified) | i
CCc1cc(=O)oc2c(C)c(OCc3ccc(Br)cc3)ccc12 | 5%
O=C1c2cccnc2C(=O)N1Cc1ccco1 | i
COc1cccc(C(=O)NC2CCS(=O)(=O)C2)c1 (stereo unspecified) | i
CCn1c(SCc2ccc(F)cc2)nnc1-c1ccc(N)cc1 | 2%
Cc1cccc(-n2c(=O)c3c4c(sc3n3c(=S)[nH]nc23)CCC4)c1 | i
COc1ccc(CCNC(=S)NNC(=O)c2ccc(-n3cccc3)cc2)cc1OC | i
CCN(C(=O)c1ccc(OC(C)=O)cc1)c1ccccc1C | i
CCOC(=O)c1ccc(NC(=O)C(Cc2ccccc2)NC(=O)c2ccccc2)cc1 (stereo unspecified) | i
C=CCSc1nnc(-c2ccc(OCC)cc2)n1-c1ccccc1 | i
COc1ccc(CCNC(=S)NCc2cc(C)n(C)n2)cc1OC | 3%
COc1ccc(-c2cc(=O)c3cc(OCC(=O)Nc4ccc(C)cc4C)ccc3o2)cc1 | i
Cc1nnc(SCC(=O)N/N=C/c2cn(-c3ccccc3)nc2-c2ccccc2)n1-c1ccccc1 | i
CCC(Sc1nnc2c(n1)[nH]c1ccccc12)C(=O)Nc1nc2ccc([N+](=O)[O-])cc2s1 (stereo unspecified) | i
Cc1cccc(S(=O)(=O)NCc2ccco2)c1 | i
Cc1ccccc1NC(=O)CSc1nc2c(c(=O)n(Cc3ccccc3Cl)c(=O)n2C)n1C | i
COc1ccc(Cl)cc1NC(=O)CSc1nc2ccccc2c(=O)[nH]1 | 1%
CCOc1ccccc1C1NC(=S)NC(C)=C1C(C)=O (stereo unspecified) | i
COc1ccc(NC(=O)CC2NCCNC2=O)cc1 (stereo unspecified) | i
Cc1ccc(C(=O)Oc2ccc(NC(=O)C3CC(=O)N(c4ccccc4)C3)cc2)cc1 (stereo unspecified) | i
CCOC(=O)c1c(-c2cccs2)csc1NC(=O)c1cccc(OC(C)=O)c1 | i
COc1cccc(C(=O)Nc2ccccc2C2CC2(Cl)Cl)c1 (stereo unspecified) | 0%
CC1CCN(C(=O)c2nn3c(C(F)(F)F)cc(-c4ccccc4)nc3c2Cl)CC1 | i
O=C(Nc1ccccc1C(=O)N1CCCCCC1)c1cccc2ccccc12 | i
Cc1nc(Nc2nc(-c3ccccc3)cc(=O)[nH]2)nc2c(C)cccc12 | 1%
CC(C)(C)c1ccc(S(=O)(=O)NCc2ccco2)cc1 | i
COc1ccc(Br)cc1S(=O)(=O)NCCN1CCOCC1 | i
CCN(CC)c1ccc(NC(=O)Nc2ccccc2C(F)(F)F)cc1 | 6%
COc1ccc(CN2CCN(S(=O)(=O)c3ccccc3)CC2)cc1OC | i
CC(=O)Nc1nc2ccc(SC#N)cc2s1 | ?
CC(NC(=O)c1csc2ccccc12)C(C)(C)C (stereo unspecified) | i
O=C(O)c1cccc2c1-c1ccccc1C2NC(=O)C(c1ccccc1)c1ccccc1 (stereo unspecified) | 1%
Cc1ccc(-c2nnc3sc(-c4ccc5c(c4)OCCO5)nn23)cc1 | i
Cn1c(OCc2ccc3c(c2)OCO3)nc2c1c(=O)n(Cc1ccccc1F)c(=O)n2C | i
CC(C(=O)Nc1sc2c(c1C(=O)NCc1ccco1)CCCC2)N1C(=O)c2ccccc2C1=O (stereo unspecified) | i
COc1ccccc1N1CCN(C(=O)c2ccc(S(=O)(=O)N3CCCCC3)cc2)CC1 | 4%
COc1ccc(NC(=O)NCc2ccccn2)cc1OC | i
Cc1ccc(S(=O)(=O)N2CCN(Cc3ccccc3Cl)CC2)cc1 | i
CN1C(=O)c2ccc(C(=O)Nc3ccccc3O)cc2C1=O | i

Structures from the list above with fluorine:
SMILES | Mtb growth
Cc1cc(Oc2coc3cc(OCC(=O)Nc4ccccc4F)ccc3c2=O)cc(C)c1Cl | 2%
O=C1CC(NCc2ccc(Cl)cc2)C(=O)N1c1ccc(F)cc1 (stereo unspecified) | 4%
CCc1cc(=O)oc2cc(Oc3ccc([N+](=O)[O-])cc3C(F)(F)F)c(Cl)cc12 | i
CC1CCc2c(sc(NC(=O)c3ccccc3F)c2C(N)=O)C1 (stereo unspecified) | 1%
CCn1c(SCc2ccc(F)cc2)nnc1-c1ccc(N)cc1 | 2%
CC1CCN(C(=O)c2nn3c(C(F)(F)F)cc(-c4ccccc4)nc3c2Cl)CC1 | i
CCN(CC)c1ccc(NC(=O)Nc2ccccc2C(F)(F)F)cc1 | 6%
Cn1c(OCc2ccc3c(c2)OCO3)nc2c1c(=O)n(Cc1ccccc1F)c(=O)n2C | i

Remaining list, next part
SMILES | Mtb growth
COc1ccc(C2=NN(C(=O)CCC(=O)O)C(c3cccc([N+](=O)[O-])c3)C2)cc1 (stereo unspecified) | i
Cc1ccc(C(=O)Nc2cccc3ccccc23)cc1I | i
CCN(c1cccc(C)c1)S(=O)(=O)c1ccc(OC)cc1 | 3%
COc1ccc(Br)cc1C1C(C(=O)OCCOc2ccccc2)=C(C)NC2=C1C(=O)CCC2 (stereo unspecified) | i
CC(=O)c1ccc(NC(=O)c2cccc([N+](=O)[O-])c2C)cc1 | i
CCOC(=O)c1ccc(CNC(=O)CSc2nnc(-c3ccc(OC)cc3)o2)cc1 | 3%
O=C(CSc1n[nH]c(-c2ccncc2)n1)Nc1cccc(Cl)c1 | i
COc1ccc(C2CC(=O)C3=C(C2)Nc2ccccc2NC3c2ccc3ccccc3c2)cc1 (stereo unspecified) | 4%
CC(Oc1ccccc1)C(=O)Nc1nnc(C(F)(F)F)s1 (stereo unspecified) | i
COC(=O)CN(c1ccc(Br)c(C)c1)S(C)(=O)=O | i
Cc1ccc(NC(=O)CSc2nnc(CSCc3ccccc3)n2C)cc1C | i
COCC(=O)NNC(=O)Nc1ccc2c(c1)OCO2 | i
Cc1c(N(C)S(=O)(=O)c2ccc(C(C)(C)C)cc2)c(=O)n(-c2ccccc2)n1C | i
NC(=O)C1CCCN1S(=O)(=O)c1ccc2ccccc2c1 (stereo unspecified) | 1%
O=C(Nc1ccc(Cl)cc1)Nc1ccc(Cc2ccncc2)cc1 | i
C=CCOC(=O)C1=C(C)NC(C)=C(C(=O)OCC=C)C1c1ccc(N(C)C)cc1 | 1%
C=CCn1c(Cc2c[nH]c3ccccc23)nnc1SCC(=O)NCc1ccccc1 | i
COc1ccc(NS(=O)(=O)c2ccc3oc4ccccc4c3c2)cc1OC | 3%
COCC(=O)NC(c1ccccc1)c1ccccc1 | i
Cc1ccc(NC(=O)c2ccc(OCC(=O)Nc3cccc(Cl)c3C)cc2)c(C)c1 | i
O=C(c1cccc(F)c1)N1CCN(C2CC3CCC2C3)CC1 (stereo unspecified) | i
CCN(CC)c1ccc(-c2nc3sc4c(c3c(=O)[nH]2)CCC(C)C4)cc1 (stereo unspecified) | i
COc1ccc(S(=O)(=O)NCc2ccccc2)cc1NC(C)=O | i
CCNCc1cc(OC)c(OC)cc1Br | i
COc1ccc(C(=O)NC(=S)N2CCCC2)cc1 | i
CC1(c2ccccc2NC(=O)c2ccc([N+](=O)[O-])cc2)CC1 | i
CC1(C)CC2CC(C)(CN2C(=O)Nc2ccccc2)C1 (stereo unspecified) | i
COc1ccccc1-c1coc2cc(OCC(=O)c3ccc(Cl)cc3)ccc2c1=O | 0%
COc1ccc2c(c1OC)C(=O)N(c1nc(C34CC5CC(CC(C5)C3)C4)cs1)C2=O | 3%
COC(=O)Cc1c(C)c2cc(Cl)c(OCC(=O)N(C)C)cc2oc1=O | i
COc1cccc(N2C(=O)NC(=O)C(CCc3ccccn3)(Cc3ccccc3F)C2=O)c1 (stereo unspecified) | i
Cc1ccc(NC(=O)c2cc(NC(=O)CCCC(=O)O)ccc2N2CCOCC2)cc1 | 4%
Cc1c(Cl)cccc1NC(=O)NC(=O)C(F)(F)F | i
CCOC(=O)C(Oc1ccc2c(CC)cc(=O)oc2c1)c1ccccc1 (stereo unspecified) | i
O=C(Nc1cccc(-c2cnc3ccccc3n2)c1)c1ccccc1 | i
O=c1c2ccccc2ncn1CCOCCOc1cccc(Br)c1 | 8%
Cc1nnc(NC(=O)CCc2ccccc2)s1 | i
Cc1cc(C)nc(/N=C(/N)Nc2ccc(Cl)c(Cl)c2)n1 | i
CC1Cc2ccccc2N1C(=O)c1cnsn1 (stereo unspecified) | i
Brc1ccc(-c2noc(CCc3ccccc3)n2)cc1 | 1%
O=c1[nH]c(C2=C(O)Cn3c2nc(=O)c2ccccc23)nc2ccccc12 | i
CC(C)C1CC(CCN2C(=O)CCC2=O)(c2ccccc2)CCO1 (stereo unspecified) | i
COC(=O)c1ccc(NC(=O)CNS(=O)(=O)c2c(C)cc(C)cc2C)cc1 | i
O=C(O)CCn1c(SCCc2ccccc2)nc2ccccc21 | 4%
CCSc1nc2c(c(=O)[nH]1)C(c1cccc(Br)c1)C1=C(CCCC1=O)N2 (stereo unspecified) | i
CC(C(=O)NCCc1ccccc1F)N1C(=O)c2ccccc2C1=O (stereo unspecified) | i
CCC(=O)Nc1ccc(Cl)c(NC(=S)NC(=O)c2ccccc2Br)c1 | 2%
O=C(COc1ccc(C(=O)Nc2ccc(F)cc2)cc1)Nc1cc(Cl)cc(Cl)c1 | i
Fc1ccccc1-c1nc2ccccc2[nH]1 | i

Source: PubChem BioAssay
